Bioassay records (PubChem)
AmpC nodet inh = AmpC beta-lactamase inhibition, detergent-free assay. P00811. AmpC nitrocefin hydrolysis, absorbance 480 nm, no detergent; potencies from a single point are estimates. Potency, µM (highest dose often 28.7 µM), inactives show top-dose activity change, negative = inhibition. 1.8% of 71,000 active. AID 585; active = falling curve, for most hits resting on a single point; inconclusive = weak or doubtful change; inactive = flat or rising curve; further: % of control where 0% means no effect; about half of the hits show no inhibition at the top dose; a quarter of the inactives give rising signals
Target sequence (P00811 whole entry, looked up): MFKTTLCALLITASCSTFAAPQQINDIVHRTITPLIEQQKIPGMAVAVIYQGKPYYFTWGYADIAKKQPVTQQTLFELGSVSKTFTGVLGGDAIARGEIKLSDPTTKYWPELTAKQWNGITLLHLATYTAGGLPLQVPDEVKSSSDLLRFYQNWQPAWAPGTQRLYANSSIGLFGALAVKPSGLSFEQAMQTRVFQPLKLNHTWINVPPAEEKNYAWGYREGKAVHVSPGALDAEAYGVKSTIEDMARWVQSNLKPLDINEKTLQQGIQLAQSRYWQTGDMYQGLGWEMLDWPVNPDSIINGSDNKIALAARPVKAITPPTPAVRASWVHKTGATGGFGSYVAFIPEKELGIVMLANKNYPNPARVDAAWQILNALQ
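Enzyme, pH 7.0 phosphate. Compound titrations were pre-incubated with AmpC for 15 min at room temperature before nitrocefin (stock 800 uM) addition; product formation was recorded at 480 nm every 20 s for 4 min.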
Numbers without * were called inactive; u = inconclusive; & = joins results of further samples; [ ] = another dose, or the depositor's remark. Potency means the concentration at half of the fitted maximal effect. Not all compounds are listed; rates above refer to the full screens.

SMILES	AmpC nodet inh
COc1ccc(CC(C(=O)Nc2cc(C)ccc2C)/C(N)=N/O)cc1 (centres undefined)	1.8%
CCCN1CCN(CCCNC(=O)C2CCN(c3nnc(-n4cccc4)s3)CC2)CC1	22.9%
Cc1c(N)cccc1Cl	-9.4%
C=CCNc1nc(-c2ccc(OC)cc2OC)cs1	-2.8%
O=C(CN(c1ccccc1)S(=O)(=O)c1ccc(F)cc1)N1CCCCCC1	16.2%
C=CCSc1nc(N)c(C#N)c(-c2ccc(C)cc2)c1C#N	-17.9%
COc1ccc(S(=O)(=O)N2CCOCC2)cc1C(=O)Nc1nc2ccccc2s1	81.0%
Cc1ccc(C(=O)Nc2ccccc2C(=O)NC(CC(=O)O)C(=O)O)cc1 (centres undefined)	-5.9%
COc1ccc(NC(=O)N2CC3(CCNCC3)C2)cc1	7.9%
Cc1n[nH]c(C)c1S(=O)(=O)N(CC(=O)Nc1ccc2c(c1)OCCO2)c1ccc(C(C)C)cc1	30.7%
O=C(Nc1cccc2c1CCCC2)c1ccco1	0.8%
Cn1c(Oc2ccccc2NCc2cc(Br)ccc2O)cc(=O)n(C)c1=O	-9.0%
O=C(NCc1ccco1)c1cccs1	5.5%
O=c1cnc2cnc(N3CCNCC3)nc2n1Cc1cccs1	-2.2%
CCCc1cc(C(=O)N(C2CCCCC2)C2CCCCC2)no1	33.6%
Cc1nn(CC(=O)Nc2ccc3c(c2)nc(CN2CCCC2)n3C)c(=O)c2ccccc12	24.3%
O=c1cnc2cnc(Oc3cccc(Cl)c3)nc2n1C1CC1	23.6%
CCOC(=O)c1[nH]c2ccc(C)cc2c1N=C(C)N(C)C	-1.3%
O=C1C2C3C=CC(C3)C2C(=O)N1Cc1ccccc1 (centres undefined)	110.1%
FC(F)(F)C(Oc1nc(NC2CCCCC2)nc(N2CCOCC2)n1)C(F)(F)F	69.3%
CCOC(=O)c1c(C)[nH]c(C(=O)CN2CCOCC2)c1C	8.1%
COc1ccc(CC(=O)Nc2cccc(-c3nnc(-c4ccc(C)cc4)o3)c2)cc1OC	75.8%
Cc1cc(NC(=O)c2cc(CC(C)C)on2)n(-c2ccccc2)n1	u
COC(=O)c1cccc(NC(=O)c2cc3sccc3n2C)c1	4.2%
c1cnc(NCCNc2ncccn2)nc1	-7.6%

Two records picked at random from those above, as already listed:
SMILES	AmpC nodet inh
CCOC(=O)c1[nH]c2ccc(C)cc2c1N=C(C)N(C)C	-1.3%
COc1ccc(CC(C(=O)Nc2cc(C)ccc2C)/C(N)=N/O)cc1 (centres undefined)	1.8%

The list continues:
SMILES	AmpC nodet inh
COc1ccc2c(c1)c(C(O)CN1CCN(Cc3ccc4c(c3)OCO4)CC1)c(C)n2C (centres undefined)	46.2%
CCc1ccccc1Nc1nc(N)nc(CSCC(=O)c2cc(C)n(C)c2C)n1	39.7%
Cc1ccc(S(=O)(=O)N[C@H](CO)C(=O)O)cc1	6.4%[5.75 µM]
CN1CCN(S(=O)(=O)c2ccc(N3CCN(S(=O)(=O)/C=C/c4ccccc4)CC3)nc2)CC1	108.6%
CCc1ccccc1N(CC)C(=O)CCc1nc(-c2ccc(C)cc2)no1	65.7%
CCn1c(SCC(=O)NCCc2ccccc2)nnc1-c1ccco1	22.6%
Cc1noc(C)c1CSc1nc2ccccc2s1	7.1%
Cc1c(C)c2c(c(C)c1O)CC[C@@](C)(CCC[C@@H](C)CCC[C@@H](C)CCCC(C)C)O2	7.2%[12.8 µM]
Cc1nnc2ccc(N3CCN(C(=O)c4ccccc4)CC3)nn12	8.5%
CCOC(=O)c1c(NC(N)=O)sc(C)c1C	5.1%
O=c1c2ccccc2nc(CN2CCOCC2)n1-c1ccccc1F	30.3%
CCOC(=O)c1cc2occc2n1CC(=O)NC1CCC(C)CC1 (centres undefined)	29.3%
C=C(C)Cn1c(C2CC(=O)N(c3ccccc3F)C2)nc2ccccc21 (centres undefined)	65.7%
CCN1C(=O)c2ccccc2S(=O)c2ccc(C(=O)NCc3ccccn3)cc21 (centres undefined)	26.3%
Cn1c(C(F)(F)F)nc2c(=O)oc3ccccc3c21	-5.6%
CCc1ccc(NC(=O)c2cc(CC(C)C)on2)cc1	3.98µM*[single pt active]
O=C1c2ccccc2C(O)N1Cc1ccc2c(c1)OCO2 (centres undefined)	3.98µM*[single pt active]
COc1ccc(-c2noc(CCC(=O)NCCN3CCN(c4ccccc4F)CC3)n2)cc1	137.1%
CC(C)(C)C1CCC2(CC1)NC(CO)(CO)CO2 (centres undefined)	8.6%
Nc1ccc(Cc2ccc(N)cc2)cc1	-4.4%
O=C(NCCC1=CCCCC1)C1CCN(Cc2cnn(-c3ccccc3)c2-n2cccc2)CC1	122.7%
CN(C)c1ccc(NC(=O)CSc2nc3ccccc3c(=O)n2C2CCCCC2)cc1	3.6%
O=c1cnc2cnc(N3CCOCC3)nc2n1C[C@H]1CCCO1	-5.2%
CCOCC(O)CS(=O)Cc1ccccc1 (centres undefined)	3.5%
CS(=O)(=O)N(CCc1ccccc1)CC(=O)N1CCN(c2ccccc2F)CC1	76.6%
Next section
SMILES	AmpC nodet inh
COc1cc2c(cc1NC(=O)c1cncc(Br)c1)oc1ccccc12	64.0%
CN(C(=O)c1ccno1)c1nnc(-c2cccnc2)s1	-2.8%
CCCn1c(SCC(=O)Nc2ccccc2N2CCCCC2)nc2c1c(=O)n(C)c(=O)n2C	102.7%
Cc1ccc2nc(NC(=O)C3CCCN(S(=O)(=O)c4cnc[nH]4)C3)sc2c1 (centres undefined)	2.3%
c1ccc(-c2csc(N3CCCCCC3)n2)cc1	-15.5%
O=C(O)CNC(=O)c1ccc(OC(F)F)cc1	-3.9%
Cn1c(-c2ccccc2)cnc1SCC(=O)NCc1ccco1	22.8%
C[C@H](Oc1ccc(Oc2cnc3ccc(Cl)cc3n2)cc1)C(=O)O	-0.2%[5.75 µM]
Cc1nc2ccccc2n1C1CCN(Cc2nnnn2CCc2ccccc2)CC1	127.0%
COc1cccc(-c2nnc(SCC(=O)N3CCCc4ccccc43)o2)c1	40.9%
Cc1cc(C)n(CCc2nc3c4ccccc4n(CC(=O)Nc4ccc(Cl)cc4F)c(=O)n3n2)n1	61.6%
O=C(NCCN1CCCCC1)Nc1ccc(F)c(Cl)c1	-4.9%
COc1ccc(CCNC(=O)C2CCCN(Cc3nc(-c4ccccc4C)oc3C)C2)cc1OC (centres undefined)	133.5%
Cn1cccc1Cc1nnc(SCC(=O)Nc2nccs2)n1CCc1ccccc1	67.6%
COC(=O)CNC(=O)Cn1ccc2ccccc2c1=O	1.8%
COc1cccc(NC(=O)CN2CCN(c3ccc(F)cc3)CC2)c1	44.8%
CCOC(=O)c1cc(C(C)(C)C)oc1CN	-6.2%
Cc1cccnc1NC(=O)C1CCN(S(=O)(=O)c2ccc3c(c2)CCC(=O)N3)CC1	2.5%
COc1c2occc2c(OC)c2c(=O)cc(C(F)(F)C(F)(F)F)oc12	-1.2%
Cn1c(=O)[nH]c(=O)c2[nH]c(CN3CCN(C(=O)c4ccco4)CC3)nc21	-11.6%
CN(C)c1ncc2ncc(=O)n(Cc3cccs3)c2n1	19.9%
CN(C)CCC[C@@H]1c2ccccc2Oc2ccc(C(F)(F)F)cc21	7.5%[5.75 µM]
COC(=O)c1ccc(C2CC(=O)NC3=C2C(=O)CCC3)cc1 (centres undefined)	-6.0%
CN1CCN(S(=O)(=O)c2ccc(NC(=O)c3ccc(F)cc3)cc2)CC1	7.7%
CCSc1nc(C)nc2c1oc1ccccc12	68.3%

Some of the entries so far, with bars between the fields.
smiles | AmpC nodet inh
Cc1cc(C)n(CCc2nc3c4ccccc4n(CC(=O)Nc4ccc(Cl)cc4F)c(=O)n3n2)n1 | 61.6%
O=C(NCCN1CCCCC1)Nc1ccc(F)c(Cl)c1 | -4.9%
COc1ccc(CCNC(=O)C2CCCN(Cc3nc(-c4ccccc4C)oc3C)C2)cc1OC (centres undefined) | 133.5%

Remaining list, next part:
SMILES	AmpC nodet inh
COc1ccccc1CN1CCC2(CC1)CCN(C(=O)c1ccncc1)CC2	-3.2%
NC1=NCc2ccccc21	8.5%
COc1ccc(CC(=O)NCc2ccccc2Cl)cc1S(=O)(=O)N1CCOCC1	14.2%
CC(C)NS(=O)(=O)c1ccc(OCC(=O)N2CCN(Cc3ccccc3)CC2)c(Cl)c1	95.2%
Cc1nnc2sc(-c3ccc(NC(=O)c4ccc(-c5ccc(Br)cc5)o4)cc3)nn12	24.2%
CCN(CC)S(=O)(=O)c1cccc(C(=O)Nc2ccccc2C(=O)N2CCOCC2)c1	3.4%
CCOc1ccc(NC(=O)C2CCN(C(=O)NCc3ccccc3)CC2)cc1	-3.1%
COC(=O)[C@@]1(Cc2ccccc2)[C@H]2c3cc(C(=O)N(C)C)n(Cc4cc(C)n(C)n4)c3C[C@H]2CN1C(=O)c1ccccc1	157.9%
Cc1ccc(Cl)cc1NC(=O)c1ocnc1C	6.8%
Cc1ccc2cc(CN(Cc3nnnn3Cc3ccco3)CC3CCCO3)c(=O)[nH]c2c1C (centres undefined)	112.5%
OCCNCC1(O)C2CC3CC(C2)CC1C3 (centres undefined)	-6.8%
CC(C)c1nc(N2CCN(C(=O)c3ccccc3)CC2)c(C#N)c2c1COC(C)(C)C2	90.5%
CC1(C)Cc2cccc(OCC(=O)Nc3nccs3)c2O1	-1.6%
CCCCCCCC(=O)O	-8.7%&-4.3%
O=C1c2ccccc2C(=O)N1CC(O)COCc1ccccc1 (centres undefined)	-3.8%
Cn1c(SCC(=O)Nc2cc(=O)n(C)c(=O)n2C)nnc1-c1cccs1	-4.4%
COc1ccc(C)cc1N	-7.7%
O=C(c1cccs1)N1CCN(Cc2nc3ccccc3c(=O)[nH]2)CC1	2.1%
CCN(CC)CCN1C(=O)c2oc3ccccc3c(=O)c2C1c1ccc(F)cc1 (centres undefined)	10.1%
CCOC(=O)C1CCN(C(c2cc(OC)c(OC)c(OC)c2)c2sc3nc(C)nn3c2O)CC1 (centres undefined)	10.4%
c1ccc2n[nH]nc2c1	-5.1%
O=C(NCc1ccccc1)c1c[nH]c2ccc(S(=O)(=O)Nc3ccc4c(c3)OCCO4)cc2c1=O	10µM*
COc1ccc(-c2cc(C(=O)N3CCN(Cc4ccccc4)CC3)no2)cc1OC	148.3%
Clc1ccc(C2=CCC[C@H]3CC[C@@H]2N3)cn1	-0.5%
CC(=O)OCCn1c(=O)c2cc3c(=O)n(CCOC(C)=O)c(=O)c3cc2c1=O	-2.3%
(listing goes on)
SMILES	AmpC nodet inh
O=C(Nc1nncs1)c1ccccc1NS(=O)(=O)c1cccs1	-10.1%
O=C(Cn1nc(-c2ccc(Cl)cc2)ccc1=O)NCCCN1CCN(Cc2ccccc2)CC1	112.6%
CCOC(=O)C1=C(c2ccccc2)NC(SC)=C(C#N)C1c1ccco1 (centres undefined)	-5.3%
CC(C)N1CC(O)=C(c2ccccc2)C1=N	-14.4%
COc1cc(OC)c(NC(=O)CCNS(=O)(=O)c2cc(Br)cnc2N)cc1Cl	-10.2%
Cc1ncc([N+](=O)[O-])n1CCN=[N+]=[N-]	4.0%[5.75 µM]
Cc1ccc(C)c(NC(=O)CNS(=O)(=O)c2ccccc2)c1	21.3%
Cc1occc1C(=O)Nc1ccc2c(c1)OCCO2	-1.0%
Cc1ccc(C(C)C)c(OCC(=O)Nc2ccccc2N2CCN(C)CC2)c1	106.9%
CCNc1ncc2nc(-c3cc(F)cc(F)c3)c(=O)n(CCC#N)c2n1	6.1%
O=C(NCCCNCc1ccccc1)c1ccc(/C=N/O)nc1	-14.5%
CC(C)COC(=O)C1C(=O)CC(C)(O)C(C(=O)OCC(C)C)C1c1cccnc1 (centres undefined)	24.5%
O=C(c1ccco1)N1CCC2(CCCN(c3ccncc3)C2)CC1	8.6%
COC(=O)NC(=S)Nc1ccccc1NC(=S)NC(=O)OC	-17.1%
O=C(Nc1ccc2nccnc2c1)c1cnccn1	-9.4%
O=Nc1ccc(NO)cc1	-0.3%
Cc1ccc(-c2nc3cc(NC(=O)C(C)C)ccc3o2)cc1C	82.3%
Cc1cccc2cc(CN(Cc3ccco3)C(=O)NC3CCCCC3)c(=O)[nH]c12	50.7%
O=C(OCn1nnc2ccccc2c1=O)c1ccc(Br)o1	-5.1%
CN(c1ccccc1)S(=O)(=O)c1cc(C(=O)c2nccn2C)ccc1Cl	24.1%
COC(=O)c1cccc(NC(=O)CN2CCN(c3ccc(OC)cc3)CC2)c1	57.0%
Cc1cc(O)cc(O)c1-c1onc(C(F)(F)F)c1-c1cscn1	-10.1%
NC(=O)C1CCN(C(=O)C2c3ccccc3C(=O)N3CCc4ccccc4C23)CC1 (centres undefined)	19.0%
COCCNC(=O)C(c1ccc(O)cc1)N(Cc1ccco1)C(=O)CCC(=O)Nc1nccs1 (centres undefined)	22.7%
CCN1C(=O)c2cccc3c(S(=O)(=O)Nc4ccccc4OC)ccc1c23	42.1%

Grouped by structure: those above with a tert-butyl group (two)
SMILES	AmpC nodet inh
CC(C)(C)C1CCC2(CC1)NC(CO)(CO)CO2 (centres undefined)	8.6%
CCOC(=O)c1cc(C(C)(C)C)oc1CN	-6.2%

Further results.
SMILES	AmpC nodet inh
COc1cc(Cn2c(=O)oc3ccc(C)cc32)ccc1OC(C)C	68.1%
O=C1c2ccccc2C(=O)N1C1(C(=O)NC2(C(=O)O)CCCC2)CCCC1	1.4%[5.75 µM]
CC(C)C[C@H](NC(=O)OC(C)(C)C)c1nnc(SCC(=O)Nc2ccc(Br)cc2)o1	29.3%
CCOc1ccc(CNC(=O)CCn2c(=O)oc3ccccc32)cc1OC	3.4%
Cc1cc2cc(CNC(=O)Nc3ccccc3)ccc2n1C	-20.3%
O=C(Nc1ccc(Nc2ccccc2)cc1)c1ccc(Br)o1	-10.9%
CCOc1ccc(N(CC(=O)NC(C)CC)S(=O)(=O)c2c(C)noc2C)cc1 (centres undefined)	29.4%
O=C(CSc1nc(N2CCCCC2)nc(N2CCCCC2)n1)Nc1nccs1	-23.4%
Cc1c(C(=O)OCCOc2ccccc2)[nH]c2c1C(=O)CCC2	-0.5%
